CtBP-E1A inh = blocks the CtBP interaction with E1A | AlphaScreen GST-E1A/His-CtBP binding, 1536-well; stronger effect = lower value; control for the full effect not named in the record | activity change, % (concentration not given with the values) | hit rate 0.49% among 340,000 | AID 651724; in the data active means activity change below about -65%; inconclusive means about -30% to -65%; inactive means above about -30%; further: on the % scale 0 is the no-effect control and ±100 the full control effect
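GST-E1A and His-tagged CtBP (125 nM each as 5X stock) were preincubated with pin-transferred compound for 2 h at 37 °C in the dark, then glutathione donor and nickel acceptor beads were added for 1 h before AlphaScreen reading.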
TRPML1 blocker = blocks the human TRPML1 channel | Q9GZU1 | TRPML1-inducible cells, Ca2+ dye fluorescence, FDSS; stronger effect = lower value; inhibition of EC80 agonist-evoked calcium signal | hit rate 0.02% among 390,000 | activity change, negative = inhibition, % (no concentration beside the values); in the data active means activity change below about -50%; inconclusive means about -30% to -50%; inactive means above about -30%;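 further: stimulus is agonist 54-4 at its EC80 concentration; on the % scale 0 is the no-effect control and ±100 the full control effect; compound concentration not given in the record; the text of the record puts the active cut at -80%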
Target sequence (Q9GZU1 whole entry, looked up): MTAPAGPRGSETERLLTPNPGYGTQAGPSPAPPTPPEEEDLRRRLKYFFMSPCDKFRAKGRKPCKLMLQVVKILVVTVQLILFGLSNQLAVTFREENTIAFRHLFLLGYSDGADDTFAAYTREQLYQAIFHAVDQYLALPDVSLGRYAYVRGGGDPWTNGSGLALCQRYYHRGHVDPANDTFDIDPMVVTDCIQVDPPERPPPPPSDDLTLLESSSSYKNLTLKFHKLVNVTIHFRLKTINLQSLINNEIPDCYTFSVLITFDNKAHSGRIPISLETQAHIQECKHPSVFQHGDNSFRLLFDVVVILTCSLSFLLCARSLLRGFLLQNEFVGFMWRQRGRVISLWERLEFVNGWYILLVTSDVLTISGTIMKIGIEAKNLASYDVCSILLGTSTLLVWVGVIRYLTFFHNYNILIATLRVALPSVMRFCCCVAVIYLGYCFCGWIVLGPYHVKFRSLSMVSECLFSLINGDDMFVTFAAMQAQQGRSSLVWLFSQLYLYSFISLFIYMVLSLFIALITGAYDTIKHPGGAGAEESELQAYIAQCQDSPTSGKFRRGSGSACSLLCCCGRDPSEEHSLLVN
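Tet-induced TRPML1-DL cells loaded with Ca8 no-wash calcium dye were read kinetically on FDSS. Compound addition was followed by EC80 agonist 54-4 (4 uM final); inhibition was read over 110 s.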
TRPML1 agonist = human mucolipin-1 channel agonism; activation, % (test concentration not listed); hit rate 0.12% among 410,000; Q9GZU1; TRPML1-expressing cells, Ca2+ dye fluorescence, FDSS; host cell line not named in the record; reference of the full effect not given here; in the data active = activation above about 50%; inconclusive = about 30% to 50%; inactive = below about 30%; further: 0% is about no effect; the text of the record puts the active cut at 80%
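Cells: TRPML1-DL, 1X Tet inducer, ~16 h at 37 degrees C/5% CO2. Dye: ABD Ca8 no-wash + quencher, 45-90 min RT. Read: 10 s baseline, compound add, 110 s agonist phase; 54-4 EC80 (4uM final), 110 s antagonist phase.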
Six1-Eya2 blk = inhibitors of human Six1/Eya2 interaction; AlphaScreen GST-Six1/His-Eya2 binding, biochemical; stronger effect = lower value; control for the full effect not named in the record; activity change, % (no concentration beside the values); hit rate 0.56% among 360,000; Q15475+O00167; in the data active = activity change below about -65%; inconclusive = about -30% to -65%; inactive = above about -30%; further: on the % scale 0 is the no-effect control and ±100 the full control effect; compound concentration not given in the record
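AlphaScreen with GST-Six1 and His-Eya2 (5X mix: 250 nM and 500 nM), glutathione donor and nickel acceptor beads; buffer 50 mM Tris pH 8.0, 300 mM NaCl, 1 mM TCEP; 1 h at 37 C in the dark.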
D2 agonist = activates the human D2 dopamine receptor | DiscoveRx PathHunter D2 beta-arrestin, luminescence, 90 min; 100% = 57 uM dopamine signal | activation, % (no concentration beside the values) | AID 624465 | P14416 | hit rate 0.084% among 360,000; in the data active = activation above about 40%; inconclusive = about 15% to 40%; inactive = below about 15%; further: compound concentration not given in the record; the text of the record calls up to 30% inactive
Target sequence (P14416 whole entry, looked up): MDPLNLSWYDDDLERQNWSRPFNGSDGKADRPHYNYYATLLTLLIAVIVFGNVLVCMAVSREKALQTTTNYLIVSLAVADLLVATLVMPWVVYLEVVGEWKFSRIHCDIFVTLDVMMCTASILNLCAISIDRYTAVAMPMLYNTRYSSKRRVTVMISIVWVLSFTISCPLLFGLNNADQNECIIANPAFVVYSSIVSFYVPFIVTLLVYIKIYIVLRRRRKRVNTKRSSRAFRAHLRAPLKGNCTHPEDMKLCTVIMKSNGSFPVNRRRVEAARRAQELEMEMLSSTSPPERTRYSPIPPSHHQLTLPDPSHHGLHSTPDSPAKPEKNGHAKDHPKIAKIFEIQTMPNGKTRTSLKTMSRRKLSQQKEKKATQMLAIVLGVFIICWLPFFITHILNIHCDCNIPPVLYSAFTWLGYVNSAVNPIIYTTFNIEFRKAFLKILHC
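DiscoveRx PathHunter D2 beta-arrestin cells (2,100/well) attached overnight, then compound-stimulated 90 min at 37 C in HBSS/10 mM HEPES/0.1% Tween-20 buffer; beta-galactosidase complementation read by luminescence after 1 h at ambient temperature. Dopamine 57 uM final (EC100) as control.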
PINK1 expr mod = changes PINK1 expression; PINK1 immunofluorescence, high-content cytometry, 24 h; Potency, µM (doses to about 76.6 µM), without a hit: at the top dose activation (PINK1 increase), actives largely listed as activators; hit rate 0.2% among 410,000; active = well fitted activation curve with a large enough effect; inconclusive = small, poorly fitted or top-dose-only effect; inactive = flat fitted curve, though single readings scatter; cell line not stated here;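 further: potency means the concentration at half of the fitted maximal effect; % of control where 0% means no effect; nearly all actives have a fitted effect of over 65% in size; a mitochondrial uncoupler was the plate control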
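Readout is PINK1 immunofluorescence, quantified alongside mitochondrial, cell and nuclear markers by laser-scanning microplate cytometry. Cells from a stable line were exposed to compound titrations (5 concentrations) for 24 hours, with CCCP controls.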
The depositor's hits bear a star; ? = inconclusive; · = not tested or not shown; [ ] = dose if it differs, or a comment.

nr	canonical_smiles	CtBP-E1A inh	TRPML1 blocker	TRPML1 agonist
1	CC(=O)c1ccc(NC(=S)NC(=O)CC(C)C)cc1	-2	-21	-0.3
2	Cc1ccc(C2NCCS2)cc1 (centres undefined)	?	21	-0.2
3	O=C(CNC(c1ccccc1)c1ccccc1)Nc1ccccc1F	8	-18	1.9
4	CCOc1ccc2nc(NCCCO)[nH]c2c1	-1	17	0.5
5	Cc1nc2ccsc2c(=O)n1-c1cccc(Cl)c1	3	-8	-0.1
6	O=C(COc1ccc(S(=O)(=O)N2CCOCC2)cc1)Nc1ccccc1Cl	2	6	0.4
7	Cc1ccc(S(=O)(=O)N2CCC(=O)N(C(COCc3ccc(Cl)c(Cl)c3)Cc3ccccc3)CC2)cc1 (centres undefined)	2	4	-0.6
8	Fc1cccc2sc(Nc3nc4ccccc4s3)nc12	3	59	-0.8

nr	Six1-Eya2 blk	D2 agonist	PINK1 expr mod
1	7	0.8	4.8%
2	-19	-2.0	1.0%
3	4	-5.0	0.1%
4	-1	-1.8	0.2%[38.3 µM]
5	8	-5.3	0.8%
6	7	-2.0	0.7%
7	-2	0.6	-0.9%
8	8	-5.7	?

Brought forward from above: three compounds, then new ones.
nr	canonical_smiles	CtBP-E1A inh	TRPML1 blocker	TRPML1 agonist
6	O=C(COc1ccc(S(=O)(=O)N2CCOCC2)cc1)Nc1ccccc1Cl	2	6	0.4
7	Cc1ccc(S(=O)(=O)N2CCC(=O)N(C(COCc3ccc(Cl)c(Cl)c3)Cc3ccccc3)CC2)cc1 (centres undefined)	2	4	-0.6
8	Fc1cccc2sc(Nc3nc4ccccc4s3)nc12	3	59	-0.8
9	COc1ccc(Cl)cc1C(=O)Nc1ccc(S(N)(=O)=O)cc1	4	-2	-0.3
10	CCc1nnc(N2C(=O)c3cccc4cccc(c34)C2=O)s1	6	-7	0.1
11	Cc1oc2ccc(O)c(CN3CCN(C)CC3)c2c1C(=O)Nc1cccc(C(F)(F)F)c1	·	9	1.0
12	Cc1oc(-c2ccccc2)nc1CS(=O)CC(=O)O (centres undefined)	6	-13	-0.5
13	O=C(CCCCCn1c(=O)[nH]c2ccccc2c1=O)NCCc1c[nH]c2ccccc12	-2	-4	0.4
14	COc1ccc(OC)c(NC(=O)COC(=O)c2ccc(S(=O)(=O)N3CCCCC3)cc2)c1	1	38	-0.7
15	COCCCNC(=O)C1CC(=O)N(c2ccc(C)cc2)C1 (centres undefined)	1	-1	-0.2
16	CCCC(=O)N1CCC1(C)C(=O)NS(=O)(=O)c1ccc(C(C)(C)C)cc1 (centres undefined)	4	-13	-0.5

nr	Six1-Eya2 blk	D2 agonist	PINK1 expr mod
6	7	-2.0	0.7%
7	-2	0.6	-0.9%
8	8	-5.7	?
9	-4	-1.8	2.4%
10	-1	-2.4	-0.4%
11	·	·	-0.8%
12	-2	1.4	1.6%
13	-2	-2.3	·
14	-6	0.3	0.9%
15	4	-3.8	7.5%[38.3 µM]
16	-3	-5.1	-0.5%

Next section.
nr	canonical_smiles	CtBP-E1A inh	TRPML1 blocker	TRPML1 agonist
17	Cc1[nH][nH]c(=O)c1C(c1ccc(O)c([N+](=O)[O-])c1)c1c(C)[nH][nH]c1=O	-5	-2	0.2
18	Cc1ccc(-n2nc(C)c(NC(=O)COC(=O)c3ccccc3NCCO)c2C)cc1	2	6	-0.2
19	Cc1ccc(CN2CCN(C(=O)CCN3C(=O)c4ccccc4C3=O)CC2)cc1	-5	7	5.1
20	CCc1cccc(NC(=O)NC2CCCCC2)c1	9	14	0.0
21	NS(=O)(=O)c1ccc(S(=O)(=O)N2CCCC(c3ccccc3)C2)cc1 (centres undefined)	25	19	-0.4
22	Cc1ccc(S(=O)(=O)NCCN=Cc2ccc(N(C)C)cc2)cc1	6	-9	-0.2
23	O=C(CN1CCc2ccccc21)Nc1ccc2c(c1)OCO2	-10	4	1.7
24	O=C(NCCc1ccc(Cl)cc1)C(=O)NCC(c1ccco1)S(=O)(=O)c1ccc(Cl)cc1 (centres undefined)	·	6	2.0

nr	Six1-Eya2 blk	D2 agonist	PINK1 expr mod
17	-4	-3.6	0.9%
18	5	0.4	0.1%
19	7	-0.1	-1.7%
20	8	2.3	0.6%
21	-16	5.7	3.3%
22	-2	-2.0	5.0%
23	-19	-1.4	-0.9%
24	·	·	1.0%

The listing continues.
nr	canonical_smiles	CtBP-E1A inh	TRPML1 blocker	TRPML1 agonist
25	COc1ccc(CNC(=O)c2cccc3c2C(=O)N(Cc2cccnc2)C3)cc1	-3	5	1.3
26	Cc1csc2ncc(C(=O)Nc3ccc(C(F)(F)F)cc3)c(=O)n12	2	-10	0.0
27	O=C1C=C(N2CCCCC2)C2(CCCCC2)O1	·	-3	0.8
28	COc1cc(/C=N/NC(=O)C2COc3ccccc3O2)cc(OC)c1OC (centres undefined)	-9	-10	-0.2
29	CC1(C)CC(=O)c2sc(N)nc2C1	8	-1	-0.9
30	COc1ccc(-n2nnnc2C2CCN(S(=O)(=O)c3cc(Cl)ccc3OC)CC2)cc1	·	34	0.1
31	CN(C)C=Nc1ncc2c3ccccc3n(Cc3ccccc3)c2c1C#N	12	8	-0.8
32	O=C(Nc1ccc(Br)c2cccnc12)c1ccc(Cn2cc([N+](=O)[O-])cn2)o1	0	-9	-0.4

nr	Six1-Eya2 blk	D2 agonist	PINK1 expr mod
25	-3	-0.8	-1.0%
26	9	-4.9	0.8%
27	-2	-4.6	1.2%
28	-1	-1.4	0.4%
29	-2	-3.5	-1.5%
30	·	·	0.0%
31	0	-2.6	7.1%
32	-12	0.5	14%

The list continues:
nr	canonical_smiles	CtBP-E1A inh	TRPML1 blocker	TRPML1 agonist
33	Cc1ccc(S(=O)(=O)NCCC(=O)OCC(=O)N(Cc2ccccc2)C(C)(C)C)cc1C	7	8	1.2
34	Cc1ccccc1C(=O)O/N=C/c1c(N2CCOCC2)n(C)c2ccccc12	-7	3	-0.7
35	COc1cc(NC(=O)C(=O)NCCN2CCNCC2)c(OC)cc1Cl	4	-11	1.5
36	O=C(Nc1ccccc1)c1cccc(=O)o1	7	-13	-0.2
37	Cc1ccc(S(=O)(=O)NN=Cc2ccco2)cc1	1	2	-0.4
38	CC(C)C(=O)Nc1ccc(Nc2ccccc2)cc1	-2	-10	0.3
39	CCOC(=O)N1CCC(C(N)=O)CC1	7	3	-0.1
40	N/C(=N/O)c1cccn1Cc1ccccc1[N+](=O)[O-]	-4	4	-0.2

nr	Six1-Eya2 blk	D2 agonist	PINK1 expr mod
33	-6	-6.7	0.6%
34	-1	?	1.7%[38.3 µM]
35	-2	3.0	0.8%
36	29	-1.5	17%
37	1	-5.1	-0.6%
38	-9	-2.2	1.3%
39	0	0.3	0.9%
40	-6	-1.9	-0.2%

Later entries
nr	canonical_smiles	CtBP-E1A inh	TRPML1 blocker	TRPML1 agonist
41	c1csc(Cc2nn3c(-c4n[nH]c5c4CCC5)nnc3s2)c1	-3	15	-0.8
42	CC(C)N(Cc1ccccc1)S(=O)(=O)c1ccc(Cl)nc1	19	21	0.4
43	CC1=C(C(=O)N2CCCC(N3CCN(c4cccc(C(F)(F)F)c4)CC3)C2)OCCO1 (centres undefined)	-1	1	1.1
44	CCCN(C(=O)C1CCN(S(=O)(=O)c2ccc(OC)c(OC)c2)CC1)C1CCS(=O)(=O)C1 (centres undefined)	0	10	0.1
45	COc1ccc(C(=O)OCc2cc(=O)n3nc(C4CC4)sc3n2)cc1OC	·	1	-0.4
46	CCCC1S/C(=N/N=C/c2cccs2)NC1=O (centres undefined)	-9	16	2.4
47	CC(C)CN1C(=O)c2ccc(NC(=O)c3cccs3)cc2C1=O	-1	-8	0.6
48	CN(C)CCNC(=O)Cn1nc(N2CCN(c3ccccc3)CC2)ccc1=O	·	-14	1.9

nr	Six1-Eya2 blk	D2 agonist	PINK1 expr mod
41	-15	-3.0	-0.8%
42	6	2.5	1.0%
43	3	-1.3	0.5%
44	5	-3.6	-1.0%
45	·	·	0.9%
46	-8	-1.1	-0.7%
47	0	1.7	5.9%[38.3 µM]
48	·	·	1.6%

More records follow:
nr	canonical_smiles	CtBP-E1A inh	TRPML1 blocker	TRPML1 agonist
49	COc1ccccc1C(=O)OCC(=O)Nc1ccc(Cl)cn1	7	16	1.4
50	Cc1ccc(C(=O)NCc2ccc(Cl)c(Cl)c2)o1	0	25	2.0
51	C/C(=N\NC(=O)c1ccc2c(c1)OCO2)c1ccco1	24	-19	-0.4
52	Cn1cc(C=O)c2ccccc21	·	38	0.9
53	CCCCCCOc1ccc(C2C(=O)N(C3CCCCC3)CC(=O)N2C2CCCCC2)cc1 (centres undefined)	·	8	0.5
54	Cc1cccc(CSc2nc3ccncc3n2CC(=O)Nc2cc(C)cc(C)c2)c1	0	25	0.5
55	C/C(=C\c1ccccc1)C(=O)NCCc1ccccc1	4	12	0.2
56	O=C(CC1S/C(=N/N=C/c2ccco2)NC1=O)Nc1cccc(Cl)c1Cl (centres undefined)	?	-6	-0.5

nr	Six1-Eya2 blk	D2 agonist	PINK1 expr mod
49	2	-0.3	6.2%
50	-2	-2.3	0.3%
51	1	-4.2	3.2%
52	0	-5.6	3.4%
53	·	·	1.7%
54	1	-5.0	3.9%
55	-5	-5.7	1.4%
56	-6	2.2	-1.6%

Carrying on:
nr	canonical_smiles	CtBP-E1A inh	TRPML1 blocker	TRPML1 agonist
57	CCOC(=O)C1=C(COC(=O)Cc2c(F)cccc2Cl)NC(=O)NC1C (centres undefined)	-2	3	0.8
58	C#CCCOC(=O)N1C2=NC(C(=O)OC)=C(C(=O)OC)[C@@H]3N(C)c4ccccc4[C@]23C[C@H]1CO	-11	?	-0.4
59	CCNC(=O)c1sc2cc(C)ccc2c1Cl	1	28	2.6
60	CC1CC(C)CN(CCCNC(=O)CN2C(=O)c3cccnc3Oc3ccccc32)C1 (centres undefined)	8	0	-0.5
61	CN(Cc1ccccc1)C1=CC(=[N+]2CCCC2)CC(C)(C)C1	-16	5	-0.5

nr	Six1-Eya2 blk	D2 agonist	PINK1 expr mod
57	3	-6.3	-0.8%
58	-14	0.9	0.7%
59	10	-3.3	1.9%
60	1	-3.4	-0.3%
61	15	-2.7	?
